Source: PubChem (Southern Research Institute)
total CFTR – compounds raising F508del-CFTR protein level – cell-based, HeLa F508del-CFTR, immunofluorescence, viability, primary screen (AID 1224863). calls, or highest fold increase where a dose series was run. HeLa F508del-CFTR, immunofluorescence total CFTR, 24 h; by the record results were divided by relative cell number; some inactives read as strong as hits. hit rate 0.1% among 10,000; in the data nearly all actives have a first-pass fold increase above 1.5; a few of its hits are not listed in these tables;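 note: total CFTR protein by anti-CFTR immunofluorescence in fixed cells; first pass at 25 µM or 10 µg/mL by library and series up to twice that; 1 = untreated cells; first-pass hits also needed half or more of the cells alive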
total CFTR fold 25 µM – second read-out of total CFTR, no call of its own (marks repeat the call); fold increase; measured here: primary screen single dose 25 uM; library dosed in µM
total CFTR fold 10 ug/mL – recorded beside total CFTR, whose call it bears; fold increase; measured here: primary screen 10 ug/mL
total CFTR viability 25 µM – recorded beside total CFTR, whose call it bears; viability, %; measured here: primary viability 25 uM; library dosed in µM;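 0% = killed and 100% = untreated cells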
total CFTR viability 10 ug/mL – second read-out of total CFTR, no call of its own (marks repeat the call); viability, %; measured here: primary viability 10 ug/mL;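 0% = killed and 100% = untreated cells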
* = called active by the depositor; i = inactive; nt = no result given; & = joins results of further samples. Not all compounds are listed; the hit share may differ from the screen's.

SMILES	total CFTR	total CFTR fold 10 ug/mL	total CFTR viability 10 ug/mL	others
C=CCN1C(=O)c2ccccc2NC1/C=C/c1ccccc1[N+](=O)[O-] (centres undefined)	i	0.88	84
CON(C)Cc1c(O)ccc2cc(Br)ccc12	i	0.92	91
CC(C)Cn1nnc(-c2ccc(Cl)cc2)n1	i	1.4	99
CC(NS(=O)(=O)N(C)C1CCCCC1)c1cc(F)ccc1F (centres undefined)	i	0.86	78
CC(C)NCC(O)c1ccc2ccccc2c1 (centres undefined)	i	nt	nt	total CFTR fold 25 µM=1&0.94;total CFTR viability 25 µM=101&90
O=C(COC(=O)c1ccccc1Oc1ccccc1)c1ccc2c(c1)OCCO2	i	0.97	104
CCn1cc(C(=O)O)c(=O)c2cnc(N3CCCC3)nc21	i	nt	nt	total CFTR fold 25 µM=0.96;total CFTR viability 25 µM=98
CCn1cc(C(=O)O)c(=O)c2cc3c(cc21)OCO3	i	nt	nt	total CFTR fold 25 µM=0.97;total CFTR viability 25 µM=100
C=CCN1C(=O)C(=O)N(CC(=O)c2ccc(Cl)s2)C1=O	i	0.98	93
CCN1CCC[C@H]1CNC(=O)c1cc(S(N)(=O)=O)ccc1OC	i	nt	nt	total CFTR fold 25 µM=1.1;total CFTR viability 25 µM=103
O=S(=O)(NCc1ccccn1)N1CCCCCC1	i	1.1	105
CC(=O)c1ccc(OCc2cc(-c3ccco3)on2)cc1	i	0.98	74
COc1cc(OC)c(C2=CCN(c3cc(C)nc4ncnn34)CC2)c(OC)c1	i	0.89	81
O=C(CCCN1C(=O)NC2(CCCC2)C1=O)Nc1ccc2c(c1)OC(F)(F)O2	i	1	100
COc1cc2c(cc1OC)CN(Cn1ncc(Cl)c(Cl)c1=O)CC2	i	1	95
CC(C)CN1CC(C(=O)Nc2ccc3c(c2)OC2(CCCC2)O3)CC1=O (centres undefined)	i	1.1	83
CCCSc1nnc(COc2ccc(Cl)cc2)o1	i	1.1	90
O=C1NC(Cc2ccccc2)(c2ccccc2)C(=O)N1CN1CCCCC1c1nc2ccccc2s1 (centres undefined)	i	1.1	91
Cc1ccc(CCC2CCN(C3CCOC3=O)CC2)cc1 (centres undefined)	i	0.97	95
Clc1ccc(C(Cn2ccnc2)OCc2ccsc2Cl)c(Cl)c1 (centres undefined)	i	nt	nt	total CFTR fold 25 µM=1.2&0.68;total CFTR viability 25 µM=81&89
O=S(=O)(c1cccc(CSC23CC4CC(CC(C4)C2)C3)c1)N1CCOCC1	i	1.1	98
c1ccc(-n2nnnc2CN2CCOc3ccccc32)cc1	i	1.2	91
CCC(C)(C)C1CCC(NC(=O)CSc2nc(C3CC3)nc3c2c(=O)[nH]c(=O)n3C2CC2)CC1 (centres undefined)	i	0.93	82
COc1ccc(-n2nnnc2SCc2nccn2C(F)F)cc1	i	0.93	97
CN(Cc1nc2ccccc2[nH]1)C(=O)NC1CCCC1	i	0.92	103
CN(C)c1nc(N)nc(CN2C(=O)NC3(CCCCCC3)C2=O)n1	i	0.99	100
Cc1cc(C(C)NC(=O)c2sccc2C)c(C)s1 (centres undefined)	i	0.97	80
CCCOC(=O)c1cnc2sccn2c1=O	i	0.97	100
CS(=O)(=O)Cc1ccc(C(=O)OCc2cc(Cl)c3c(c2)OCO3)cc1	i	1.1	98
CCCCn1c(=O)[nH]c(=O)c2c1nc(COC(=O)c1c(C)[nH]c(C(=O)OCC)c1C)n2CCC	i	0.98	91
CN(Cc1ccc(C(F)(F)F)cc1)Cn1nc(C2CC2)n(C)c1=S	i	1	74
CN1CCN(c2nc(-c3ccc(C(F)(F)F)cc3)cs2)CC1	i	0.95	91
Brc1ccc(OCc2nc(-c3ccsc3)no2)cc1	i	0.9	95
O=C(NCC1(N2CCOCC2)CCSC1)Nc1ccc(Cl)c(Cl)c1 (centres undefined)	i	1.1	82
O=c1ccc([N+](=O)[O-])cn1Cc1cc(-c2ccco2)on1	i	1.1	93
CN(C)S(=O)(=O)c1ccccc1CNCc1ccc2c(c1)CCO2	i	0.95	83
COc1cccc(Nc2nnc(SCc3ccc4c(c3)OCO4)s2)c1	i	0.99	90
O=C1c2ccccc2S(=O)(=O)N1Cc1nc(-c2ccc(Br)s2)cs1	i	1.1	116
COCCn1c(SCC(=O)C23CC4CC(CC(C4)C2)C3)nc2sc3c(c2c1=O)CCCC3	i	1.1	102
N#Cc1c(NC(=O)CCN2CCC(O)CC2)sc2c1CCCCC2	i	0.9	85
CCCc1sc(C(=O)N2CCN(S(=O)(=O)N(C)C)CC2)cc1CC	i	1	85
C=CCN1C(=O)c2ccc(C(=O)OCc3nc(COc4ccc(F)cc4)no3)cc2C1=O	i	0.97	104
CSCCC1NC(=O)N(CC(=O)NCC23CC4CC(CC(C4)C2)C3)C1=O (centres undefined)	i	1.1	105
Cc1cc(=O)n2nc(CSc3nc4ccccc4c4nc(C)nn34)sc2n1	i	1	101
O=C(OCc1cc(=O)oc2ccc3ccccc3c12)c1cc2ccccc2o1	i	1.1	99

No new results follow: entries from further up.
SMILES	total CFTR	total CFTR fold 10 ug/mL	total CFTR viability 10 ug/mL	others
C=CCN1C(=O)c2ccccc2NC1/C=C/c1ccccc1[N+](=O)[O-] (centres undefined)	i	0.88	84
CON(C)Cc1c(O)ccc2cc(Br)ccc12	i	0.92	91
CC(C)Cn1nnc(-c2ccc(Cl)cc2)n1	i	1.4	99
CC(NS(=O)(=O)N(C)C1CCCCC1)c1cc(F)ccc1F (centres undefined)	i	0.86	78

Additional compounds:
SMILES	total CFTR	total CFTR fold 10 ug/mL	total CFTR viability 10 ug/mL	others
NCC(O)COc1ccc(F)cc1 (centres undefined)	i	0.69	37
O=S(=O)(c1ccc2c(c1)CCC2)N1CCN(Cc2ccccn2)CC1	i	1.1	96
CCCS(=O)(=O)NC1CCN(c2ncccn2)CC1	i	0.99	98
Cc1cc(C(=O)N2CCN(S(=O)(=O)N3CC(C)OC(C)C3)CC2)sc1C (centres undefined)	i	1.1	101
Cn1c(=O)[nH]c(=O)c2c1nc1n2CCCN1c1ccccc1	i	1	93
C#C[C@]1(O)CCC2C3CCC4=C(CCC(=O)C4)C3CC[C@@]21C (some centres undefined)	i	nt	nt	total CFTR fold 25 µM=0.92;total CFTR viability 25 µM=90
C/C=C/CSc1nc2ccsc2c(=O)n1C	i	1.1	92
Clc1ccc(-c2csc(NC3CC3)n2)cc1	i	0.94	87
Cc1cnc(NC(=O)CCC2CCCO2)s1 (centres undefined)	i	1.1	89
CN(Cc1ccc(Cl)s1)Cn1nc(-c2cccnc2)n(C)c1=S	i	0.92	96
Cc1nc(N)cc(C[n+]2csc(CCO)c2C)n1	i	nt	nt	total CFTR fold 25 µM=1;total CFTR viability 25 µM=87
OC1CCN(Cn2ncn(-c3ccccc3)c2=S)CC1	i	1.1	95
COc1ccc(O)c(C(=O)OCC(=O)c2cc(OC)ccc2OC)c1	i	1	86
N#Cc1c(CN2CCN(S(=O)(=O)N3CCOCC3)CC2)cn2ccccc12	i	1.1	92
Cc1nn(CN2CCCC(c3nnc4n3CCCCC4)C2)c(=S)n1C1CCCCC1 (centres undefined)	i	1	91
CCCC(C)NC(=O)NC(C(N)=O)C(N)=O (centres undefined)	i	0.92	94
CN(CCN1C(=O)CCC1=O)C1CCc2ccccc21 (centres undefined)	i	1.1	79
Nc1ccc(Sc2ncn[nH]2)cc1	i	1	101
CC(Cc1ccco1)NC(=O)C1CC2CCC1C2 (centres undefined)	i	1	96
CN(Cc1ccccc1N1CCOCC1)c1ccc2nnnn2n1	i	1	89
O=S(=O)(Cc1ccc(F)cc1)N1CCN(c2ncc(C(F)(F)F)cc2Cl)CC1	i	0.89	84
CN1CCC(NC(=O)COc2ccc3oc4c(c3c2)CCCC4)CC1	i	0.98	84
FCOC(C(F)(F)F)C(F)(F)F	i	nt	nt	total CFTR fold 25 µM=1.1;total CFTR viability 25 µM=106
O=C(COC(=O)c1ccc([N+](=O)[O-])s1)NCC12CC3CC(CC(C3)C1)C2	i	1.2	109
O=[N+]([O-])c1cnc2ccc(Br)cc2c1NCCCOCC1CC1	i	0.84	76
CC[C@H](C)C(=O)O[C@H]1CCC=C2C=C[C@H](C)[C@H](CC[C@@H]3C[C@@H](O)CC(=O)O3)[C@H]21	2.8	nt	nt	total CFTR fold 25 µM=1.6;total CFTR viability 25 µM=82
O=C(c1ccc(Br)cc1)c1cc2cc(Br)ccc2o1	i	1	101
Cc1ccc(-n2[nH]c(C)c(N=Nc3cccc(-c4cccc(C(=O)O)c4)c3O)c2=O)cc1C	i	nt	nt	total CFTR fold 25 µM=1.1;total CFTR viability 25 µM=85
CC(C)N1C(=O)C(=O)N(CC(=O)c2ccc3c(c2)OCCO3)C1=O	i	1.2	91
CC(C)Nc1ncccn1	i	nt	nt	total CFTR fold 25 µM=0.98;total CFTR viability 25 µM=99
N[C@H](Cc1cc(I)c(Oc2ccc(O)c(I)c2)c(I)c1)C(=O)O	i	nt	nt	total CFTR fold 25 µM=1;total CFTR viability 25 µM=75
CCOC(=O)c1sc2nc(C)nc(NC3CCCC3)c2c1C	i	0.99	82
Cc1noc(C(C)Nc2ccc(Br)c(C)c2)n1 (centres undefined)	i	0.89	93
CS(=O)(=O)c1ccc(NC2CCCCCC2)c([N+](=O)[O-])c1	i	0.87	98
CC1CCC(NC(=O)C2CCCN(C(=O)N(C)C)C2)CC1 (centres undefined)	i	0.9	97
Cn1nnn(CN2CCN(c3ccccc3)CC2)c1=S	i	1.1	101
S=c1[nH]nc(N2CCOCC2)n1CC1CCCO1 (centres undefined)	i	0.95	91
CC(=O)OC(C)C[N+](C)(C)C (centres undefined)	i	nt	nt	total CFTR fold 25 µM=1.3;total CFTR viability 25 µM=106
O=[N+]([O-])c1ccc(NCCO)c(NCc2cc(Cl)cc3c2OCOC3)c1	i	0.88	89
CN(Cc1ccc2c(c1)OCO2)S(=O)(=O)c1cc(Cl)ccc1Cl	i	1	83
CCCn1c(N)c(C(=O)CSCC(=O)OC)c(=O)[nH]c1=O	i	1	102
CCC[C@@H]1C[C@@H](C(=O)N[C@@H]([C@H]2O[C@H](SC)[C@H](O)[C@@H](O)[C@H]2O)[C@H](C)Cl)N(C)C1	i	nt	nt	total CFTR fold 25 µM=1&1;total CFTR viability 25 µM=96&105
COC(=O)Nc1nc2ccc(Sc3ccccc3)cc2[nH]1	i	nt	nt	total CFTR fold 25 µM=0.78&0.7&0.78;total CFTR viability 25 µM=60&76&89
COC(=O)C1=C(C)NC(C)=C(C(=O)OC(C)C)C1c1cccc2nonc12 (centres undefined)	i	nt	nt	total CFTR fold 25 µM=0.94;total CFTR viability 25 µM=83
CCOCc1c(C(=O)NC2=Nc3ccccc3NC(CC)=C2C(=O)OCC)oc2ccccc12	i	0.87	81
C=CCN(C1CCc2ccccc21)S(=O)(=O)c1cc(F)cc(F)c1 (centres undefined)	i	0.92	81
CCCC(C(=O)OCCN(CC)CC)(c1ccccc1)c1ccccc1	i	nt	nt	total CFTR fold 25 µM=1;total CFTR viability 25 µM=79
Cc1cc(=O)c(C(=O)N[C@@H](C(=O)N[C@@H]2C(=O)N3C(C(=O)O)=C(CSc4nnnn4C)CSC23)c2ccc(O)cc2)c[nH]1 (some centres undefined)	i	nt	nt	total CFTR fold 25 µM=0.75;total CFTR viability 25 µM=57
O=C1CC2(CCCC2)C(=O)N1CN1CCCc2cc(F)cc(F)c21	i	1	103
COCCSCC(=O)Nc1cc2c(cc1Cl)OCO2	i	1.2	106
CC(=O)c1ccc(Sc2ccc3c(c2)OCCO3)c([N+](=O)[O-])c1	i	0.94	91
Cc1nc(CNCCS(=O)(=O)N2CC(C)OC(C)C2)cs1 (centres undefined)	i	1.3	93
S=c1nc(-c2cccs2)[nH]n1CN1CCN(c2ncccn2)CC1	i	1.1	95
CC(C)NC(=O)CN(C)CC(=O)NC12CC3CC(CC(C3)C1)C2	i	1.1	95
COC(=O)c1cc(C#N)c(=O)n(CCC(N)=O)c1	i	1.1	91
CCONC(=O)c1nccnc1N	i	1.1	99
CC(O)C(=O)O (centres undefined)	i	nt	nt	total CFTR fold 25 µM=1;total CFTR viability 25 µM=112
O=c1[nH]c2ccccc2n1CCCN1CCN(C(c2ccccc2)c2ccccc2)CC1	i	nt	nt	total CFTR fold 25 µM=0.85;total CFTR viability 25 µM=84
CO[C@H]1/C=C/O[C@@]2(C)Oc3c(C)c(O)c4c(O)c(c5c(c4c3C2=O)NC2(CCN(CC(C)C)CC2)N=5)=NC(=O)/C(C)=C\C=C\[C@H](C)[C@H](O)[C@@H](C)[C@@H](O)[C@@H](C)[C@H](OC(C)=O)[C@@H]1C	i	nt	nt	total CFTR fold 25 µM=0.86;total CFTR viability 25 µM=108
CCC(C)NS(=O)(=O)c1ccc(S(=O)(=O)N(CC)CC)cc1 (centres undefined)	i	0.91	94

An excerpt from above in order of SMILES length, descending:
SMILES	total CFTR	total CFTR fold 10 ug/mL	total CFTR viability 10 ug/mL	others
O=c1[nH]c2ccccc2n1CCCN1CCN(C(c2ccccc2)c2ccccc2)CC1	i	nt	nt	total CFTR fold 25 µM=0.85;total CFTR viability 25 µM=84
CC(=O)c1ccc(Sc2ccc3c(c2)OCCO3)c([N+](=O)[O-])c1	i	0.94	91
CCC(C)NS(=O)(=O)c1ccc(S(=O)(=O)N(CC)CC)cc1 (centres undefined)	i	0.91	94
CCCC(C(=O)OCCN(CC)CC)(c1ccccc1)c1ccccc1	i	nt	nt	total CFTR fold 25 µM=1;total CFTR viability 25 µM=79
COC(=O)c1cc(C#N)c(=O)n(CCC(N)=O)c1	i	1.1	91
CC(O)C(=O)O (centres undefined)	i	nt	nt	total CFTR fold 25 µM=1;total CFTR viability 25 µM=112
